Screening data deposited in PubChem by several laboratories.
A1 inh: inhibitors of the anti-apoptotic protein A1, read as caspase activation. MEF A1-2A-BIM cells, Caspase-Glo 3/7 luminescence, 3 h; percent of clofoctol response, vehicle zero. caspase activation, % (no concentration beside the values). 330,000 tested, 0.066% active;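 active means over half of replicate activation scores above 10%, or exactly half above 10 with the replicate mean above 10; inconclusive means replicate mean below 10 yet half the replicates above 10; inactive means over half of replicates below 10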;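 further: wells of about 30 µL received 50 nL stock; many hits fall short of the cut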
UCH37 inh: blocks the human deubiquitinase UCH37 | inhibition, % (concentration not given with the values) | purified proteasome/UCH37, Ub-AMC cleavage fluorescence | 330,000 tested, 0.33% active;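 active means mean of two replicates above 20%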;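 further: 0% = compound-free wells with enzyme and 100% = wells lacking proteasome; stock transfer was 100 nL into about 20 µL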
Target sequence (Q9Y5K5 whole entry, looked up): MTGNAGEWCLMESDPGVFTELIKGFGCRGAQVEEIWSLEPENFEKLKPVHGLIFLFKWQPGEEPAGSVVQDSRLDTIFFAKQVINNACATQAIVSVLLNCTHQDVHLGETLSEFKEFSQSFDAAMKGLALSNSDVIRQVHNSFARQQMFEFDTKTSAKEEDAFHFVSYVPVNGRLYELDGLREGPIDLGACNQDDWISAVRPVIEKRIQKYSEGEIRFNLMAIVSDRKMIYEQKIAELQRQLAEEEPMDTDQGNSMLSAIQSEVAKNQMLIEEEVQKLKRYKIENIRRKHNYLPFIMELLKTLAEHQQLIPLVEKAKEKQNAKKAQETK
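Material: Human UCH37 enzyme supplied as purified proteasome complex | Schedule: 30 min compound-proteasome preincubation then 25 min substrate reaction, room temperature | Detection: AMC fluorescence from Ub-AMC cleavage, excitation 355 nm, emission 460 nm | Benchmarks: Wells without proteasome as full block, compound-free enzyme plus substrate as uninhibited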
rRNA inh HTS: inhibits bacterial ribosomal RNA function over humanized ribosomes; E. coli WT GFP vs humanized-ribosome RFP mutants, fluorescence, 24 h; hits give low values; DMSO median 0, no signal -100; 350,000 tested, 1.6% active; GFP signal change (wild-type ribosome), % (test concentration not listed);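 active means significant combined selectivity score with lowered wild-type GFP, culture density cut under 30%, mutant RFP and density less affected; inactive means any of these conditions unmet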; further: one replicate is shown; some compounds called inactive have numbers as strong as hits
E coli growth: inhibitors of Escherichia coli growth. OD600, 23 h; hits give low values. OD600 absorbance (test concentration not listed). 330,000 tested, 0.21% active;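 active means OD600 absorbance below the run mean of sample wells minus 3.6 SD, in any replicate, cut at about 0.56 in these data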;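 further: stock transfer was 300 nL into about 60 µL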
AF4-AF9 inh: blocks AF4 peptide binding to human AF9; P42568; inhibition, % at 10 µM; AID 651704; AlphaScreen, biotin-AF4 peptide binding to FLAG-AF9; 350,000 tested, 0.47% active;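 active means every replicate reaching a set inhibition limit, whatever the replicate mean, cut at about 25% in these data; inconclusive means mean inhibition reaches that limit but some replicates miss it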;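 further: 0% = plate neutral control median and 100% = total signal loss; the record names both 10 and 1 µM as test concentration; the first replicate is given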
Beta cell apopt: beta cell apoptosis inhibition; INS-1E cytokine-induced death, ATP luminescence, 48 h; percent of positive-control rescue, neutral wells zero; protection from apoptosis, % (no concentration beside the values); 300,000 tested, 0.8% active;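 active means all replicates at 75% or more, or half of them and the mean; inconclusive means half reach 75% but not the mean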;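 further: 0% = cytokine-treated negative control wells and 100% = positive control rescue; higher means more ATP so stronger rescue from cytokine killing; wells of about 40 µL received 100 nL stock; the first replicate is given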
FGF22 binding: shifts melting point of recombinant human FGF22. Q9HCT0. recombinant FGF22 thermal shift, SYPRO orange fluorescence; percent of sucrose octasulfate shift, DMSO zero. calls only at 9.99 µM. 340,000 tested, 1.5% active. AID 651658;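 active means melting point raised past a set limit in the mean and every replicate; inconclusive means no clear call; three in four hits are not shown here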
Target sequence (Q9HCT0 whole entry, looked up): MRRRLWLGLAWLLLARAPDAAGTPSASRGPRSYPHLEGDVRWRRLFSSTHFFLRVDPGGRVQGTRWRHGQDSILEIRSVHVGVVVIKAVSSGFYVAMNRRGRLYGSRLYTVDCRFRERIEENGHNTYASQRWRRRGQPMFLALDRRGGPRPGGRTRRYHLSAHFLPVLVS
T cruzi inh: blocks replication of Trypanosoma cruzi | T. cruzi beta-gal in NIH3T3, luminescence, 90 h | inhibition, % (no concentration beside the values) | 300,000 tested, 1.4% active | AID 1885;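 active means mean inhibition across valid replicates above about 55%, limit read from the data; inconclusive means mean below that limit but half or more replicates reach it; inactive means mean below it, under half of replicates reach it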;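 further: signal also drops with host cell toxicity which is not excluded here; 0% = plate median of DMSO wells and 100% = zero luminescence signal; higher percent means less beta-gal luminescence so fewer parasites; stock transfer was 50 nL into about 50 µL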
rRNA inh HTS OD600: further read-out of rRNA inh HTS, marked with its call; OD600 change, %; measured here: OD600 growth;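 optical density of the mix in the first replicate; 0 = DMSO median and -100 = no signal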
rRNA inh HTS RFP: second read-out of rRNA inh HTS, no call of its own (marks repeat the call); RFP signal change, %; measured here: RFP humanized mutant strains;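 first replicate; 0 = DMSO median and -100 = no signal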
Active calls of the source: *; i = inactive; u = inconclusive; x = not tested or not shown; & = joins results of further samples. Only part of the results is shown; count on the stated rates, not on these rows.

SMILES | A1 inh | UCH37 inh | rRNA inh HTS | rRNA inh HTS OD600 | rRNA inh HTS RFP | E coli growth | AF4-AF9 inh | Beta cell apopt | FGF22 binding | T cruzi inh
COc1cccc(CNc2ccc([N+](=O)[O-])cc2C)c1 | 0.3 | 4.1 | -16 | -7 | -0.2 | 0.7 | u | 2 | i | -5
O=C(c1ccc(Nc2cccc(C(F)(F)F)c2)nc1)N1CCCC1 | -0.5 | 1.3 | -6 | -3 | 1.9 | 0.67 | x | -1 | x | 12
O=C1CN(C(=O)c2ccco2)c2ccccc2N1 | -0.7 | 0.8 | x | x | x | 0.75 | x | -14 | x | -2
N#CCC(=O)N/N=C\c1cc(Br)ccc1OC/C=C/c1ccccc1 | 2.1 | x | -4 | -4 | 6.9 | x | -0.8 | 11 | i | x
C=CCOc1ccccc1/C=N/NC(=O)Cc1ccccc1 | 0.3 | x | 7 | 2 | 2.9 | x | -3.0 | -7 | i | -5
N#CCCN(C(=O)COC(=O)/C=C/c1cccs1)c1ccccc1 | 0.7 | 3.4 | -2 | -13 | -0.2 | 0.7 | -2.3 | -1 | i | x
COc1ccc(NC(=O)CN(C)C(=O)Cc2ccc3c(c2)CCC3)cc1 | 0.0 | 1.9 | 6 | 4 | 1.0 | 0.7 | -0.6 | 0 | i | -6
CC(C)Oc1cc2ccccc2cc1CNC[C@H]1O[C@@H](n2cnc3c(N)ncnc32)[C@H](O)[C@@H]1O | -0.6 | 6.2 | -7 | -1 | -2.5 | 0.71 | -1.1 | -6 | i | x
C=CCCC(=O)N1CCC(Oc2cccc(C(=O)NCc3ccccn3)c2)CC1 | 0.7 | 0.5 | 6 | 5 | 0.2 | 0.66 | 0.1 | x | i | -2
O=C(Cn1nnc(-c2ccccc2)n1)NC(=O)NC1CCCC1 | -1.1 | -0.2 | x | x | x | 0.69 | -1.4 | -6 | i | x
COC(=O)c1sc(NC(=O)CSc2nc3cccnc3n2C)nc1C | 0.9 | 3.0 | 13 | 8 | -1.7 | 0.71 | -2.7 | -4 | i | 4
COc1cc(C(C)=O)ccc1OCC(O)CN1CCN(c2cc(C)cc(C)c2)CC1 (stereo not given) | -0.6 | 1.8 | -26 | -24 | -1.3 | 0.65 | -14 | x | i | 32
Nc1nonc1C(=O)NCCNC(=O)c1cccs1 | 1.7 | 3.2 | -10 | -12 | 7.9 | 0.71 | -5.1 | -5 | i | -9
COc1cc2c(c(OC)c1OC)-c1ccc(OC)c(=O)cc1[C@@H](NC(C)=O)CC2 | 0.7 | 2.8 | 8 | 10 | 1.9 | x | -4.8 | 38 | i | 22
O=C(CSc1ccc2nnc(-c3cccnc3)n2n1)Nc1ccc(F)cc1F | 0.8 | -2.4 | 12 | 9 | -0.4 | 0.64 | -4.1 | x | i | u
Cc1ccccc1Nc1nc(N)nc(CSc2nnc(C)n2C)n1 | -0.4 | 2.9 | 5 | 3 | -0.6 | 0.64 | -5.4 | -3 | i | -5
O=C(Nc1cccnc1)C1CCN(S(=O)(=O)c2cccs2)CC1 | 0.3 | 0.8 | -5 | -1 | -3.3 | 0.63 | -2.6 | 1 | i | 4
COc1ccc(C(=O)/C=C/C(=O)N(Cc2ccccc2OC)C(C(=O)NC2CCCCC2)c2ccncc2)c(O)c1 (stereo not given) | 1.5 | -2.0 | x | x | x | 0.67 | x | 7 | x | 23
Cc1nn(Cc2ccccc2)c(Cl)c1C(=O)NCCc1ccccc1 | -1.0 | -2.7 | -2 | -8 | -4.7 | 0.69 | -0.9 | -7 | i | 11
CN(Cc1ccccc1)c1oc(COc2ccccc2F)nc1C#N | -0.3 | 1.8 | -23 | -34 | -6.9 | 0.75 | 20 | 5 | i | 9
COc1ccc(NC(=O)CCCCC(=O)Nc2ccc(OC)cc2)cc1 | -0.3 | 1.1 | -4 | 6 | -3.4 | 0.65 | -3.1 | x | i | -3
COc1ccc(/C=N/OCC(=O)N(Cc2ccc(OC)cc2)c2ccccc2C(=O)O)cc1 | 0.2 | x | -9 | -11 | 1.0 | x | -7.0 | 2 | i | -4
Cc1nccn1CCC1CCCCN1C(=O)CCc1nnc(-c2ccsc2)o1 (stereo not given) | -0.6 | -0.5 | 10 | 11 | -1.6 | 0.66 | 1.9 | x | i | 2
CN(Cc1cc2ccccc2[nH]c1=O)C(=O)c1cccs1 | -0.6 | -2.9 | 7 | 7 | 1.7 | 0.69 | 0.8 | 2 | i | -5
COc1ccc(CSc2nnc(-c3ccncc3)n2C)cc1F | 0.9 | 0.7 | 11 | 15 | -1.1 | 0.7 | 3.0 | 4 | i | -10
COc1ccc(NC(=O)C(CC(C)C)NS(=O)(=O)c2ccc3c(c2)CCN3C(C)=O)cc1OC (stereo not given) | 0.5 | -0.9 | x | x | x | 0.7 | x | -7 | x | -7
Cc1nn2c(Nc3ccc(F)cc3)c3c(nc2c1-c1ccccc1)CCC3 | 1.0 | -56 | 11 | 0 | -2.5 | 0.71 | -6.3 | 6 | i | -5
Cc1ccc(C)c(N2CCN(C(=O)CCc3nc(-c4ccccc4C)no3)CC2)c1 | x | 1.8 | -8 | -17 | 7.3 | 0.71 | 0.3 | x | i | x
O=C(CCCSc1nc(-c2ccco2)cc(C(F)(F)F)n1)Nc1ccc2c(c1)OCO2 | 0.4 | 0.1 | x | x | x | 0.76 | x | 3 | x | -1
CCOC(=O)N1CCC(NC(=O)Cn2nc(-c3ccccc3)ccc2=O)CC1 | 0.5 | -0.2 | -2 | -3 | 1.4 | 0.63 | -3.4 | x | i | -26

Some of the entries so far, with two lines to a compound.
Order of results – A1 inh	UCH37 inh	rRNA inh HTS	rRNA inh HTS OD600	rRNA inh HTS RFP	E coli growth	AF4-AF9 inh	Beta cell apopt	FGF22 binding	T cruzi inh
CN(Cc1ccccc1)c1oc(COc2ccccc2F)nc1C#N
    -0.3	1.8	-23	-34	-6.9	0.75	20	5	i	9
COc1ccc(NC(=O)CCCCC(=O)Nc2ccc(OC)cc2)cc1
    -0.3	1.1	-4	6	-3.4	0.65	-3.1	x	i	-3
COc1ccc(/C=N/OCC(=O)N(Cc2ccc(OC)cc2)c2ccccc2C(=O)O)cc1
    0.2	x	-9	-11	1.0	x	-7.0	2	i	-4

(list continues)
SMILES | A1 inh | UCH37 inh | rRNA inh HTS | rRNA inh HTS OD600 | rRNA inh HTS RFP | E coli growth | AF4-AF9 inh | Beta cell apopt | FGF22 binding | T cruzi inh
Cc1cc2oc(=O)cc(CN3CCN(S(=O)(=O)c4cccs4)CC3)c2cc1C | -0.1 | 1.1 | x | x | x | 0.74 | x | 15 | x | 33
CC1(C)c2[nH]c3ccccc3c2C[C@@H]2C(=O)N(c3cc(F)ccc3F)C(=O)N21 | 0.5 | 0.4 | x | x | x | x | x | 5 | x | 10
O=C(NC1CCCCC1)c1n[nH]c2c1CC(c1ccccc1)CC2 (stereo not given) | 0.4 | -2.1 | 4 | 5 | -6.7 | 0.73 | 4.7 | -1 | i | x
COC(=O)C1CCN(CC(=O)N(C)c2c(N)n(Cc3ccccc3)c(=O)[nH]c2=O)CC1 | 0.8 | -0.1 | x | x | x | 0.68 | -4.8 | -3 | i | x
Cc1cccc(NC(=O)c2cc(NC(=O)C3CCCCC3C(=O)O)ccc2Cl)n1 (stereo not given) | 1.2 | 0.7 | x | x | x | 0.76 | x | 1 | x | 5
CCc1ccccc1NC(=O)c1cc2ncc(Br)cn2n1 | -1.1 | -25 | x | x | x | 0.77 | x | -2 | x | 7
CCCn1cnc2c(=S)nc(N)[nH]c21 | -0.1 | 9.5 | 12 | 8 | -3.6 | 0.66 | -8.7 | -4 | i | -12
COc1ccc(CCNC/C=C/c2ccccc2)cc1 | -0.5 | x | 1 | -6 | -0.2 | x | -1.1 | -4 | i | 22
Cc1cc(C(=O)OCC(=O)c2cccs2)ccc1[N+](=O)[O-] | x | 1.5 | 0 | -2 | 0.5 | 0.7 | -17 | x | i | x
O=C(C1CCCCC1)N(Cc1ccccc1)c1ccccn1 | -0.2 | 0.7 | x | x | x | 0.68 | x | 1 | x | -9
O=C(CSc1nc(-c2ccccc2)nn1C(=O)c1ccccc1)Nc1cccc([N+](=O)[O-])c1 | -0.8 | 2.4 | x | x | x | 0.72 | x | x | x | -3
CN(Cc1ccccn1)Cc1nc(COc2ccccc2)no1 | -0.3 | 4.0 | 5 | -7 | 2.6 | 0.7 | -1.9 | -6 | i | 7
O=C(NCc1nc2ccccc2[nH]1)C1=C[C@H](c2coc3ccccc3c2=O)C[C@H](OCc2ccc(CO)cc2)O1 | -0.1 | 1.6 | 1 | 4 | 3.1 | x | -1.5&-1.3 | -8 | i | 2
Cc1cccc(OCC(=O)N(C)c2c(N)n(Cc3ccccc3)c(=O)[nH]c2=O)c1C | -0.6 | 3.1 | 15 | 14 | 3.4 | 0.68 | -0.1 | -1 | i | x
O=C(CC(Cc1ccccc1)C(=O)O)Nc1cccc(C(F)(F)F)c1 (stereo not given) | -0.3 | 2.1 | 1 | 12 | 1.0 | 0.67 | -0.4 | -4 | i | -8
O=C(NCC1CCCO1)c1ccc(COc2ccc(Cl)cc2)cc1 (stereo not given) | 0.2 | 3.6 | -20 | -28 | -9.0 | 0.7 | -1.0 | -9 | i | -11
CN(C)C(CNC(=S)Nc1cccc(Cl)c1)c1cccnc1 (stereo not given) | -0.5 | 0.9 | 17 | 19 | 1.3 | 0.66 | -1.9 | -4 | i | 27
CN(C)S(=O)(=O)n1cc(/C=C(\NC(=O)c2ccccc2)C(=O)N2CCCC2)c2ccccc21 | -2.1 | 3.6 | -17 | -27 | -16 | 0.69 | 5.9 | 7 | i | -4
CC1C(=O)C(C)C(c2cccc(Br)c2)NC1c1cccc(Br)c1 (stereo not given) | 1.8 | 0.3 | 11 | -5 | -1.3 | 0.67 | -5.1 | 1 | i | 6
O=C(NCCCN=C1NS(=O)(=O)c2ccccc21)c1ccc(Cl)cc1 | -0.3 | 2.0 | -2 | 0 | 1.6 | 0.63 | 1.5 | 1 | i | 2
COc1ccc(NC(=O)Cc2ccc(Cl)c(Cl)c2)cn1 | -0.2 | 2.7 | -7 | -3 | 0.7 | 0.68 | 0.7 | 3 | i | 0
